VACV Venus inh = vaccinia inhibition (Venus reporter). Vaccinia virus Venus reporter expression, fluorescence. Potency, µM (series often up to 36.5 µM), for inactives: at the highest dose activity change, negative = inhibition, most hits filed as inhibitors. 330,000 tested, 0.46% active; active means well fitted inhibition curve with a large enough effect; inconclusive means small, poorly fitted or top-dose-only effect; inactive means no such curve, though single readings can be large or run the other way; tested in A549 cells; note: nearly all actives have a fitted effect of over 30% in size; inactives centre near -10
VACV mCherry inh = inhibitors of vaccinia virus infection (mCherry reporter signal). AID 720579. Vaccinia virus mCherry reporter infection, fluorescence; about a quarter of the inactives have no number. 310,000 tested, 0.63% active. Potency, µM (series often up to 36.5 µM), for the others: top-dose activity change, negative = inhibition, usual class: inhibitors; active = well fitted inhibition curve with a large enough effect; inconclusive = small, poorly fitted or top-dose-only effect; inactive = no such curve, though single readings can be large or run the other way; tested in A549 cells; note: nearly all actives have a fitted effect of over 35% in size; inactives centre near -10
Active calls of the source: *; i = inactive; u = inconclusive; x = no result given; & = joins results of further samples; [ ] = remark or other dose. % is set by controls: 0 for no effect and ±100 for the full control effect; potency is the fitted concentration of half-maximal effect.

SMILES | VACV Venus inh | VACV mCherry inh
Cc1cc(NC(=O)CSc2nc3c(cc2C#N)CCCCC3)no1 | -3.3% | -10.0%
COCC(C)NC(=O)c1cnn2c(C(F)F)cc(-c3ccccc3)nc12 (stereo not given) | -3.6% | -0.6%
Cc1ccccc1Cc1c(C)nc2ncnn2c1C | -6.0% | -9.4%
CN(Cc1ccccc1)c1ccc([N+](=O)[O-])cc1C(=O)O | -1.4% | i
O=C(Nc1ccc(S(=O)(=O)N2CCOCC2)cc1)c1cccc(Br)c1 | -7.3% | -19.5%
Cc1cc(C)nc(N2CCCC(CCC(=O)NCc3ccc(F)c(F)c3)C2)n1 (stereo not given) | 9.8% | -1.4%
Cc1ccc(-n2c(C)nn(CC#N)c2=O)cc1 | -11.7% | -1.4%
CCC/C(O)=C1\C(=O)CCCC1=NCCCCCC(=O)O | -9.0% | -7.9%[1.46 µM]
CCCCN(CC)CCCNC(=O)c1cn(CC)c2ccc(S(=O)(=O)N3CCOCC3)cc2c1=O | -0.9% | -3.3%
COc1cc(C)ccc1OCCSc1nc2ccc(NC(C)=O)cc2s1 | -23.3% | -1.6%
CCc1ccc(S(=O)(=O)c2cn(CC)c3cc(N4CCOCC4)c(F)cc3c2=O)cc1 | -16.5% | -7.6%
CCCC1C(C(=O)OCC)=C(C)NC(C)=C1C(=O)OCC | -24.1% | x
CCOC(=O)C1=C(COC(=O)/C=C/c2ccc(OC)cc2)NC(=O)NC1C (stereo not given) | -27.4% | u
C/C=C1\COC(C(=O)NCCCN2CCCC2=O)(C(F)(F)F)C=C1C=C(C)C (stereo not given) | -7.4% | -22.9%
COC(=O)CN1C(=O)CSc2ccc(S(=O)(=O)Nc3c(C)cc(C)cc3C)cc21 | -12.3% | -8.6%
O=C(NCC1CCCO1)C(=Cc1cccc([N+](=O)[O-])c1)C(=O)NCC1CCCO1 (stereo not given) | u | 12.6µM*
Nc1cccc2nsnc12 | -15.3% | i
CC(=O)N(C)c1ccc(N=Nc2ccc3ncccc3c2)cc1 | -8.1% | u
O=C(O)CCCNC(=O)CCCn1nnc2ccccc2c1=O | -2.3% | -17.6%
COc1cccc(C2NC(=O)NC(C)=C2C(=O)Nc2ccc(C)cc2)c1 (stereo not given) | -15.9% | i
CCN(Cc1ccccc1)S(=O)(=O)c1cc(C(=O)O)ccc1OC | -7.4% | 2.7%
C=CCNC(=O)CN1CCC(n2c(C)nc3cc(C(F)(F)F)ccc32)CC1 | -6.7% | -1.0%
COCCCNC(=O)CCc1c(C)nc2cc(-c3ccc(Cl)cc3)nn2c1C | -7.4% | -7.1%
C[C@@H]1CN([C@H](C)CO)C(=O)c2cc(NC(=O)Nc3ccc(F)cc3)ccc2O[C@@H](C)CCCCO[C@H]1CN(C)S(=O)(=O)c1cccs1 | u | u
CCC(CC)NC(=O)c1cc(OC)c(OC)cc1[N+](=O)[O-] | -8.1% | i

More results
SMILES | VACV Venus inh | VACV mCherry inh
COc1ccc2cc(-c3nc4ccc(C(=O)O)cc4[nH]3)c(=O)oc2c1 | -11.0% | -14.8%
Cn1c(=O)c2c(-c3ccc(Cl)cc3)n(Cc3ccc(Cl)cc3)cc2n(C)c1=O | -10.8% | -8.6%
CN(C)CCCNc1ncc(C(F)(F)F)cc1Cl | 2.1% | 3.2%
CC(C)N1CCC(n2nccc2NC(=O)c2ccc3c(c2)OCO3)CC1 | -11.6% | -21.5%
Cc1cccc(-n2c(/C=C/c3cn(C)c4ccccc34)nc3ccccc3c2=O)c1 | -6.5% | -9.6%
CC(=O)Nc1ccc(OCc2cc(=O)n3ccccc3n2)cc1 | -8.4% | -1.7%
CCOc1ccc(N(CC)S(=O)(=O)N2CCCC(C(=O)NCc3ccccc3OCC)C2)cc1 (stereo not given) | -12.0% | -17.3%
O=C(Cc1ccccc1)NNc1c2ccccc2nc2ccccc12 | -29.4% | -19.6%
Cc1cc(N)n(Cc2ccc(Cl)cc2)n1 | -7.7% | -16.5%
O=C(Nc1ccc2c(c1)C(=O)NC2=O)c1ccc2ncsc2c1 | -2.5% | i
CN(C)C(=S)NC(=S)Nc1ccc2ccccc2c1 | -26.0% | -9.7%
CCN(CC)CCn1c2c(c(SCC(=O)Nc3nc4ccccc4s3)nc1=O)CCCC2 | -19.1% | -7.8%
CC1CCN(CC(O)COc2cccc(F)c2)CC1 (stereo not given) | 0.8% | 7.7%
COc1ccc(CN2CCOc3ccc(CN4CCC(O)(c5cccnc5)CC4)cc3C2)cc1OC | -17.9% | -18.8%
COc1ccc(NC(=O)C2CCCN2C(=O)OCc2ccccc2)c(OC)c1 (stereo not given) | -0.2% | x
COc1cc(OC)cc(-c2c(-c3cccs3)c3cc(-c4ccc(N(C)C)nc4)ccc3n2C)c1 | -25.6% | -9.2%
Cc1cccc(N(C(=O)CNC(=O)c2ccco2)C(C(=O)NC2CCCCC2)c2cccnc2)c1 (stereo not given) | -6.6% | -5.4%
CCC(C)NC(=O)c1ccc2c(c1)N(Cc1ccccc1)C(=O)c1ccccc1S2(=O)=O (stereo not given) | -14.5% | -10.0%
CC(Sc1nc(-c2ccccc2)c(-c2ccccc2)[nH]1)C(=O)NCC1CCCO1 (stereo not given) | -17.7% | u
Cc1ccc([C@H]2C(C(=O)O)=CC[C@@H](c3cccs3)N2S(=O)(=O)c2ccc(C)cc2)cc1 | -25.6% | i
COCC(C)NC(=O)C(C)Oc1ccccc1 (stereo not given) | -4.5% | -7.0%
O=C(NCc1ccco1)NC12CC3CC(CC(C3)C1)C2 | -23.3% | x
CCCn1c(SCC(=O)N2c3ccccc3CC2C)n[nH]c1=O (stereo not given) | -4.8% | -14.1%
Cc1c(N(C)C(=O)COc2ccc3ccccc3c2)c(=O)n(-c2ccccc2)n1C | -7.1% | i
CCOc1ccc(NC(=O)c2oc3ccccc3c2NC(=O)C(C)(C)C)cc1 | -18.9% | -10.3%

The listing continues.
SMILES | VACV Venus inh | VACV mCherry inh
O=C(CSCc1cnn(-c2ccccc2)c1-n1cccc1)Nc1ccc(F)cc1F | -11.9% | -12.1%
CCOC(=O)N/N=C(\C)c1ccc(C)o1 | -7.9% | -19.4%
CSCC[C@H](NC(=O)N1CCn2c1nc1ccccc12)C(=O)NCc1ccc2c(c1)OCO2 | -4.7%[7.34 µM] | -13.0%[7.34 µM]
C=CCOc1ccc(/C(CC)=N/O)cc1OC | -11.0% | i
Cc1ccccc1OCCNC(=S)Nc1ccccc1 | -29.7% | x
O=C(Nc1ccc2c(c1)OCO2)C1CCCN1C(=O)Nc1cccc(F)c1 (stereo not given) | -9.0% | -6.4%
COc1ccc(C2C(C#N)=C(N)Oc3n[nH]c(C)c32)cc1Cn1cc([N+](=O)[O-])cn1 (stereo not given) | u | x
CCCSC1=NN2CCCC(=O)N=C2S1 | 1.1% | i
CCOc1ccc(NC(=O)CC2C(=O)OCCN2CC)cc1 (stereo not given) | 13.6% | 6.8%
O=C(O)c1ccccc1C(=O)N1CCN(c2cccc(Cl)c2)CC1 | -10.0% | -4.4%
Cc1ccc(N(CC(=O)N/N=C/c2ccco2)S(=O)(=O)c2ccccc2)cc1 | -7.1% | -12.0%
CN1C(=O)N(c2ccc(Cl)cc2)C(C)(O)CC1(C)C (stereo not given) | -27.5% | i
O=S(=O)(Nc1ccc(-c2csc(-c3ccccc3)n2)cc1)c1ccccc1 | -17.5% | u
COc1ccc(S(=O)(=O)N2CCCCC2c2cc(C(=O)N3CCOCC3)no2)cc1 (stereo not given) | 1.8% | -5.9%
COc1ccc(-c2ccc(-c3noc(C4CCCCC4)n3)c(OC)n2)cc1 | -1.2% | -3.1%
COc1cc(OC)c(NC(=O)c2cn(C)c(=O)c3cc(OC)c(OC)cc23)cc1Cl | -9.9% | -13.7%
C=CCn1c(=O)c2c(nc3n2CC(C)CN3c2cccc(OC)c2)n(C)c1=O (stereo not given) | -24.8% | -20.3%
CCC(C)Nc1nc(N)c([N+](=O)[O-])c(NC2CCCCC2)n1 (stereo not given) | -5.0% | i
Cc1oc(-c2ccc(Cl)cc2)nc1CN1CCC(C(=O)NCc2cccs2)CC1 | -26.3% | u
Cc1ccc(C(=O)Nc2ccc(Cl)cc2C)c(Cl)c1 | -12.9% | -5.9%
CSCCC(c1nnnn1Cc1ccccc1)N1CCC2(CC1)C(=O)NCN2c1ccccc1 (stereo not given) | -3.6% | 14.6%
COc1ccc(-n2nnnc2SCC(=O)N2CCCC2)cc1OC | -8.9% | -14.2%
COc1ccc(-c2nc3ccccc3o2)cc1NC(=O)c1cccnc1 | -2.0% | -11.6%
Nc1nnc(SCC(=O)Nc2ccc3nc(SCC(=O)Nc4ccccc4)sc3c2)s1 | -18.1% | -12.1%
C/C(=N\NC(=O)C1(C)CC1(Br)Br)c1cccc(NC(=O)C2CCC2)c1 (stereo not given) | -21.0% | -28.9%

Entries listed so far that contain a CF3 group (3):
SMILES | VACV Venus inh | VACV mCherry inh
C/C=C1\COC(C(=O)NCCCN2CCCC2=O)(C(F)(F)F)C=C1C=C(C)C (stereo not given) | -7.4% | -22.9%
C=CCNC(=O)CN1CCC(n2c(C)nc3cc(C(F)(F)F)ccc32)CC1 | -6.7% | -1.0%
CN(C)CCCNc1ncc(C(F)(F)F)cc1Cl | 2.1% | 3.2%

Next section.
SMILES | VACV Venus inh | VACV mCherry inh
c1ccc(-c2nnc(C3CC(c4ccncc4)=NO3)o2)cc1 (stereo not given) | 2.9% | -22.6%
Cc1ccc(NS(=O)(=O)c2ccc(C(=O)NCCCN3CCCC3=O)cc2)cc1C | -15.9% | -8.6%
CCCCCCCCSc1nnc(-c2ccc(OC)cc2)o1 | -0.8% | x
COc1ccc(CN2CCNC(=O)C2CC(=O)NC2CCOCC2)c(F)c1 (stereo not given) | -12.9% | i
O=C(N/N=C/c1ccc[nH]1)c1ccc(O)cc1 | -4.7% | i
CN(Cc1ccccc1)C(=O)CCNC(=O)Cn1cnc2ccccc2c1=O | -10.8% | -6.4%
O=C(NCCN1CCOCC1)c1cc(S(=O)(=O)Nc2ccccc2F)c(Cl)cc1Cl | -10.5% | -8.1%
COc1cc(/C=C/C(=O)CC(=O)/C=C/c2ccc(O)c(OC)c2)ccc1O | 9.2%&16.8% | 15.4%
COc1ccc(C2(Nc3cccc(C(=O)O)c3C)C(=O)c3ccccc3C2=O)cc1 | -5.0% | i
CCOC(=O)c1c(C)n(-c2ccccc2)c2ccc(OC(=O)c3ccccc3)cc12 | -10.6%[7.34 µM] | -14.7%[7.34 µM]
O=C(CN(c1ccc(F)cc1)S(=O)(=O)c1ccccc1)N1CCOCC1 | 1.9% | -12.9%
CCN(CC)C(=O)CSC(=Nc1ccccc1F)NC#N | 37.5%[activator] | x
C=CCn1c(/N=C/c2ccc3c(c2)OCO3)nc2ccccc21 | -19.1% | i
O=C(CC1SC(N2CCCCC2)=NC1=O)Nc1ccc(C(=O)NCc2ccccc2)cc1 (stereo not given) | -1.4% | -14.9%
COc1ccccc1/C=C/C=N/NC(=O)Cc1cccn1C | -14.0% | -18.7%
COc1cc(/C=N/NC2=NC(C)(C)Cc3ccccc32)cc(OC)c1OC | -5.2% | -7.9%
O=C(NC1CCCC1)c1nc(-c2ccco2)oc1-c1ccccc1 | -7.0% | i
Cc1ccc(OCC(O)Cn2c(=N)n(CCN3CCOCC3)c3ccccc32)cc1 (stereo not given) | -13.4% | i
COc1ccc(CN=C(N)N=C(N)N)cc1Cl | -24.9% | -24.6%
OC(CC(O)c1ccccc1)c1ccccc1 (stereo not given) | 1.1% | -2.8%
Cc1noc(/C=C/N(C)C)c1S(=O)(=O)N1CCC(C(=O)O)CC1 | 1.7% | 44.9%[activator]
COc1ccc(CCNC(=O)Cc2c(C)c3cc4c(C)coc4cc3oc2=O)cc1OC | -2.8% | -10.6%
CCCN(C(=O)c1cccc(S(=O)(=O)N2CCN(Cc3ccccc3)CC2)c1)C1CCS(=O)(=O)C1 (stereo not given) | -5.7% | -2.8%
COc1ccccc1NC(=O)COC(=O)/C=C/c1cccs1 | -5.2% | -15.6%
CCOC(=O)c1c(S(=O)(=O)N2CCC(C(=O)Nc3ccc(C)c(Cl)c3)CC2)c(C)n(C)c1C | -29.1% | -23.8%

Remaining list, next part.
SMILES | VACV Venus inh | VACV mCherry inh
CCOc1ccc(S(=O)(=O)N2CCOCC2)cc1NC(=O)CCOc1ccc(C(C)(C)C)cc1 | 0.0% | -6.5%
Cc1cccc(C(=O)OCC(=O)NC2CC2)c1O | -0.6% | -4.6%
C=CCn1c(CCC(O)COCCC)n[nH]c1=S (stereo not given) | -18.2% | -9.4%
CCOC(=O)c1c(C)n(-c2ccccc2)c2ccc(OC(=O)c3ccccc3NC(=O)C(C)C)cc12 | -11.0% | -8.6%
O=C(N/N=C/C=C/c1ccco1)C(O)c1ccccc1 (stereo not given) | -5.4% | -16.7%
S=c1[nH]nc(C2CCCCC2)n1/N=C/c1ccncc1 | 2.0% | i
O=C(NNC(=S)NC(=O)c1ccccc1[N+](=O)[O-])c1ccccc1Cl | 3.9% | -1.4%
COc1cc2c(cc1OC)[C@@H](Cc1ccc(OCCC#N)cc1)N(C)CC2 | -13.9% | -8.7%
Cc1cccc(CN2CCN(C3CN(Cc4ccc([N+](=O)[O-])cc4)S(=O)(=O)C3)CC2)c1 (stereo not given) | -7.8% | 9.3%
CC(=O)N(/N=C/c1cccc(C)c1)c1nc(-c2ccc(Br)cc2)cs1 | -17.3% | -18.4%
CCOc1ccc(NC(=O)CCn2cnc3onc(-c4ccc(F)cc4)c3c2=O)cc1 | 0.7% | -9.2%

Entries shown so far with a tert-butyl group:
SMILES | VACV Venus inh | VACV mCherry inh
CCOc1ccc(NC(=O)c2oc3ccccc3c2NC(=O)C(C)(C)C)cc1 | -18.9% | -10.3%
CCOc1ccc(S(=O)(=O)N2CCOCC2)cc1NC(=O)CCOc1ccc(C(C)(C)C)cc1 | 0.0% | -6.5%

Compound activity (PubChem)
